Screening data deposited in PubChem BioAssay by Center for Chemical Genomics, University of Michigan.
TAR Tat displ – HIV-1 TAR-Tat binding disruption; HIV-1 TAR RNA, Tat peptide displacement FRET; hits give high values; z-score (no concentration beside the values); 100,000 compounds, 0.6% hits; AID 1259389;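 note: score is relative to mean and SD of negative controls; some compounds called inactive have numbers as strong as hits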
CDC25B-CDK2 inh – human CDC25B-CDK2/CyclinA binding inhibition; z-score (no concentration beside the values); HTRF CDC25B-CDK2/CyclinA binding, anti-His/anti-Flag; hits give high values; 94,000 compounds, 0.72% hits; P30305+P24941;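 note: score is relative to mean and SD of negative controls; strong numbers were not always called active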
The depositor's hits bear a star; . = not tested or not shown.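 Rule for the calls: active = z-score from 3 up in half or more of its runs; inactive = the rest.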

SMILES | TAR Tat displ | CDC25B-CDK2 inh
CC1CCC2(CC1)N=C(c1cccc(F)c1)C(=O)N2 (configuration not stated) | . | -0.76
Cc1cccn2c(=O)c3cc(C(=O)N4CCCC(C)C4)n(C)c3nc12 (configuration not stated) | . | -2.65
COCC1(C)OC(=O)C(C(=O)OC)=C1C (configuration not stated) | . | 0.2
CCOC(=O)/C(C#N)=C/Nc1cnc(N(C)C)c(C(F)(F)F)c1 | . | -2.04
CCN(CC)S(=O)(=O)c1ccc(Nc2c3c(nc4ccccc24)CCCC3)cc1 | 0.88 | 1.35
CC(C)CNC(=O)c1c(O)c2cccc3c2n(c1=O)CC3 | 2.26 | .
Cn1cc(CC(=O)Nc2ccc(F)cc2)c2ccccc21 | . | -1.39
CCN(CC)S(=O)(=O)c1ccc2c(c1)nc(CN(C)C(=O)Nc1ccc(Cl)cc1)n2C | 0.93 | .
O=C(NCc1cccs1)c1cc2c(s1)-c1ccsc1CC2 | 0.54 | .
Cc1ccc(S(=O)(=O)NC(C)c2ccc(-c3ccccc3)cc2)cc1[N+](=O)[O-] (configuration not stated) | . | 1.52
CC(C)(C)c1ccc(-c2noc(CCC(=O)NCC3CCCO3)n2)cc1 (configuration not stated) | 0.05 | -1.06
CCOc1ccc(N2C(=O)C3C4c5ccccc5C(C(=O)O)(c5ccccc54)C3C2=O)cc1 (configuration not stated) | 3.75 | 0.1
c1ccc2c(c1)nc(Nc1ccc3c(c1)OCCO3)n1cnnc21 | 1.72 | .
N#CC(C(=O)c1ccccc1Cl)=C1SCCCS1 | . | -1.85
O=C(OCc1cc(=O)n2ccsc2n1)c1cccc(F)c1 | -0.86 | .

Reprinted from the part before: two entries, followed by the next part.
SMILES | TAR Tat displ | CDC25B-CDK2 inh
N#CC(C(=O)c1ccccc1Cl)=C1SCCCS1 | . | -1.85
O=C(OCc1cc(=O)n2ccsc2n1)c1cccc(F)c1 | -0.86 | .
CCOC(=O)Cc1nnc2c(Nc3ccccc3Cl)nc3nonc3n12 | 1.18 | 0.2
CSc1nn(-c2ccccc2)cc1/C(N)=N/OC(=O)c1cccs1 | . | -1.1
CCc1nc2nc(CSc3nc4ccc(NC(=O)C(C)(C)C)cc4s3)cc(=O)n2[nH]1 | 3.02 | .
N#C/C(=N\Nc1ccc(F)cc1)C(=O)c1ccc(Cl)cc1 | . | -1.7
Cc1cc(C)n2nc(CNc3ccc(Cl)cc3)nc2n1 | 1.04 | -2.06
C1=CC2c3c(ccc4ccccc34)NC(c3ccccc3)C2C1 (configuration not stated) | -8.45 | -0.4
CCOc1ccccc1Nc1ncnc2c1nc1n2CCCCC1 | 0.29 | .
Cn1c(C(=O)N2CCCC(C(=O)NCCCN3CCCC3)C2)cc2sccc21 (configuration not stated) | . | -0.16
O=C1O[C@@H]2C[C@H]3C[C@@H]2[C@@H]1[C@H]3C(=O)N1CCN(c2ccc(Cl)cc2)CC1 | 1.08 | 0.53
FC(F)(F)c1cc(C#CCN2CCOCC2)cc(C(F)(F)F)c1 | . | -2.15
Cc1cc(C)c(NC(=O)C2CCCN(S(=O)(=O)c3c(C)noc3/C=C/N(C)C)C2)c(C)c1 (configuration not stated) | 2.42 | -1.83
O=C(c1ccccc1F)N(Cc1ccccc1F)C1CCS(=O)(=O)C1 (configuration not stated) | 0.46 | -1.74
OC1(c2ccc(F)cc2)Cc2ccccc2C2=NCCN21 (configuration not stated) | . | -1.26
Cc1nc2sccn2c(=O)c1S(=O)(=O)Nc1ccc(Cl)cc1 | 0.88 | .
O=C(NNC(=O)c1cccc([N+](=O)[O-])c1)Nc1ccc(Cl)cc1 | . | -0.9
CC(C)NC(=O)C1=CC(c2ccc(F)cc2)=NS(=O)(=O)N1C | 2.06 | -0.73
Cc1nc2ccn(Cc3ccco3)c(=O)c2cc1C(=O)N1CCOCC1 | 0.49 | .
CCOC(=O)c1oc2nc(-c3ccccc3)cc(-c3cccs3)c2c1N | . | -1.25
O=C(c1cc(-c2ccccc2F)no1)N1CCCC1c1ccco1 (configuration not stated) | 1 | 1.07
COC(=O)c1c(NC(=O)c2ccc3c(c2)CC(c2ccccc2)OC3=O)sc2c1CCC2 (configuration not stated) | -0.1 | -1.29
COc1ccc(-c2c(N)n(Cc3ccccc3)c(=O)c3cc([N+](=O)[O-])ccc23)cc1OC | . | -0.66
Cn1c(SCC(=O)N2CCOCC2)ncc(C(=O)Nc2ccc(F)cc2)c1=O | 1.73 | .
Cc1cc(C)c(C(=O)CC2(O)C(=O)Nc3ccc(C)cc32)c(C)c1 (configuration not stated) | 1.03 | 0.24
O=S(=O)(c1cccnc1)N1CCN(c2ncnc3c2nnn3-c2cccc(F)c2)CC1 | 1.15 | .
COC(=O)C1=C(C)Nc2ncnn2C1c1ccc(Cl)cc1 (configuration not stated) | 1.16 | -1.15
COc1ccc(NC(=O)NC2COc3ccccc3C2)c(OC)c1 (configuration not stated) | -0.18 | .
Cn1c(=O)c2cc(C(=O)NCc3cccs3)sc2c2ccccc21 | 1.5 | -0.85
Cc1ccccc1S(=O)(=O)N1CCCC1c1cccs1 (configuration not stated) | 0.59 | -1.83
Cc1ccc(CNC(=O)CSc2nncn3c2cc2occc23)cc1 | -5.04 | .
O=C(O)Cn1cnc(-c2ccc(F)cc2)c1 | 0.32 | -0.4
N#CC(C#N)=NNc1ccc(Cl)c(Cl)c1C#N | . | -1.07
CCc1cc2c(cc3c(=O)n(CC(=O)N4CCN(c5ccccn5)CC4)ncn32)s1 | -0.33 | -1.62
CCOC(=O)/C(C#N)=C/Nc1cc(C)c(OS(=O)(=O)c2cc(Cl)cc(Cl)c2)c(Cl)c1 | . | -0.31
Cc1ccc(CN2CCS(=O)(=O)CC2)cc1 | . | -1.19
CCOC(=O)c1sc(=S)n(CC)c1N | -0.73 | -1.62
CCc1nnc(NC(=O)CCS(=O)(=O)c2ccc3c(c2)NC(=O)CS3)s1 | -3.56 | .
CCc1nc(N2CCCCC2)c(C#N)c2c1CCCC2 | . | -1.19
Nc1c(C(=O)Nc2ccccc2Br)sc2nc3c(cc12)CCCCC3 | . | -2.05
Nc1nccnc1C(=O)N/N=C/c1ccco1 | . | -3.45
O=S1(=O)NC(=NCC2CCCO2)c2ccccc21 (configuration not stated) | 0.38 | -1.27
Cc1ccc(NS(=O)(=O)c2cn(C)cn2)c(C)c1 | 1.16 | .
Cc1oc(CN2CCOCC2)cc1C(=O)O | -0.26 | -1.31
Cc1c(C2=CCN(S(=O)(=O)c3cn(C)cn3)CC2)c2ccccc2n1Cc1ccc(F)cc1 | -0.2 | .
COCCNC(=O)N1CCc2cc(S(=O)(=O)NC3CCCC3)ccc21 | 0.71 | .
O=C(O)CSC1CCS(=O)(=O)C1 (configuration not stated) | . | 0.08

Entries of single compounds, quoted from the list. Values in the order: TAR Tat displ | CDC25B-CDK2 inh
Cc1ccc(CN2CCS(=O)(=O)CC2)cc1 reads . | -1.19
COC(=O)c1c(NC(=O)c2ccc3c(c2)CC(c2ccccc2)OC3=O)sc2c1CCC2 (configuration not stated) reads -0.1 | -1.29
c1ccc2c(c1)nc(Nc1ccc3c(c1)OCCO3)n1cnnc21 reads 1.72 | .
O=C(NCc1cccs1)c1cc2c(s1)-c1ccsc1CC2 reads 0.54 | .
Cc1cc(C)n2nc(CNc3ccc(Cl)cc3)nc2n1 reads 1.04 | -2.06

New compounds follow
SMILES | TAR Tat displ | CDC25B-CDK2 inh
CCOC(=O)c1[nH]c2ccc(Cl)cc2c1CCN1C(=O)c2ccccc2C1=O | . | 0.64
CC(=O)Nc1ccc(NC(=O)C2CC2(C)C)cc1 (configuration not stated) | . | -0.23
CCn1nc(C)c(CCNS(=O)(=O)c2ccc(C)cc2)c1C | 0.12 | .
COCCn1cc(C(=O)N2CCCC2)c2c3ccccc3n(C)c2c1=O | . | 0.46
O=C(c1ccc(Oc2cc(Cl)cc(Cl)c2)o1)N1CCN(Cc2cccnc2)CC1 | . | -1.47
O=S(=O)(c1cccc(F)c1)N1CCN(Cc2ccc3c(c2)OCO3)CC1 | . | -1.27
O=C(NC1CC1)C1CCN(c2nc3cccnc3s2)CC1 | 2.23 | .
Cc1nn(C)c(C)c1N=Nc1c(C)nn(C)c1C | . | -2.32
COC(=O)C1=C(C)NC(=S)NC1c1cc(OC)c(OC)c(OC)c1 (configuration not stated) | . | -0.93
Cc1ccc(-c2nc(CS(=O)CC(=O)O)c(C)o2)cc1 (configuration not stated) | 0.84 | .
COc1ccccc1Nc1nc(NCCc2ccccc2)nc(N)c1[N+](=O)[O-] | 0.47 | .
Cc1ccc(NC(=O)CSc2nc(-c3ccco3)nc3cc(=O)[nH]n23)c(Cl)c1 | -0.12 | .
CCOC(=O)c1cc(-c2ccc(S(=O)(=O)N(C)C(C)CCc3ccco3)s2)on1 (configuration not stated) | 0.78 | .
O=c1ccc(-c2ccc(S(=O)(=O)Nc3cccc(Br)c3)s2)n[nH]1 | 0.64 | .
CCCCN(C(=O)c1cc2c(=O)n3ccccc3nc2n1C)c1ccccc1 | 1.63 | .
O=C(c1cnn(-c2ccccc2)c1C1CCNCC1)N1CCN(c2ccc(F)cc2)CC1 | -0.78 | .
COCCN(C(=O)c1sc2nc3n(c(=O)c2c1C)CCCCC3)C1CCN(C(C)=O)CC1 | 0.81 | .
COc1ccc(Nc2nc(N3CCN(C)CC3)nc3c2cnn3C)cc1Cl | 0.95 | .
Cc1ccc(S(=O)(=O)c2nc(S(C)(=O)=O)sc2NCc2ccc3c(c2)OCO3)cc1 | -1.19 | -1.28
Cc1ccc(S(=O)(=O)NCc2cn3ccsc3n2)cc1 | . | -1.57
COc1ccccc1-c1noc2ncnc(NC(C)C)c12 | 1.16 | .
CCn1nc(C)c(CNC(=O)Nc2ccccc2Br)c1C | 0.92 | .
O=C(Nc1c(C(=O)N2CCN(c3ccccc3)CC2)oc2ccccc12)C1CC1 | 0.43 | .
Cc1cc(NC(=O)NCC2CCN(C3CCCC3)C2)ccc1Br (configuration not stated) | 1.56 | -1.68
CCN1CNC(=S)N(c2ccc(C)cc2)C1 | . | -0.14
O=S(=O)(c1ccc(Cl)cc1)N1CCN(Cc2ccc(F)cc2)CC1 | 1.2 | 0.08
COc1cccc(CNCCCSc2nnnn2C)c1OC | 1.95 | -1.35
Cc1ccc(-c2cc(O)cc3sc(=O)oc23)cc1C | 1.18 | -3.89
CCCN1CCN(c2cc(NCCCOCC)c3c4c(onc24)-c2ccccc2C3=O)CC1 | 6.31* | 1.86
Cc1cc2c(cc3c(=O)n(CC(=O)NC4CCCc5ccccc54)ncn32)s1 (configuration not stated) | 0.48 | -2.75

5 consecutive records already listed, quoted:
SMILES | TAR Tat displ | CDC25B-CDK2 inh
CCN1CNC(=S)N(c2ccc(C)cc2)C1 | . | -0.14
O=S(=O)(c1ccc(Cl)cc1)N1CCN(Cc2ccc(F)cc2)CC1 | 1.2 | 0.08
COc1cccc(CNCCCSc2nnnn2C)c1OC | 1.95 | -1.35
Cc1ccc(-c2cc(O)cc3sc(=O)oc23)cc1C | 1.18 | -3.89
CCCN1CCN(c2cc(NCCCOCC)c3c4c(onc24)-c2ccccc2C3=O)CC1 | 6.31* | 1.86

Further results follow:
SMILES | TAR Tat displ | CDC25B-CDK2 inh
Cc1cn2c(=O)cc(COc3ccc(Cl)cc3C)nc2s1 | -0.69 | -2.39
Cc1c(C(=O)N2CCCCCC2)oc2ccc(S(=O)(=O)N3CC(C)CC(C)C3)cc12 (configuration not stated) | . | 1.67
CN(C)CCCNc1ncnc2c1oc1nc3c(cc12)COC(C)(C)C3 | 0.21 | .
N#C/C(=C\c1ccc([N+](=O)[O-])cc1)C(=O)Nc1ccc(F)c(F)c1F | . | -0.05
Cc1nc2c(c(Nc3ccccc3OC(C)C)n1)CCC2 | -0.33 | -1.41
CCOc1ccccc1-c1cn2nc(C3CC3)sc2n1 | 0.3 | -0.82
Cc1ccc(-c2noc(CSc3nnc(C)n3-c3ccccc3)n2)cc1 | 1.54 | -1.74
CCOC(=O)C1C(=O)CC(C)(O)C(C(=O)OCC)C1c1cccnc1 (configuration not stated) | -0.51 | -0.24
Cc1ccc(C2NC(=O)c3n[nH]c(C)c32)cc1 (configuration not stated) | 2.53 | -0.56
COc1ccccc1C(=O)CC1(O)C(=O)Nc2ccc(Br)cc21 (configuration not stated) | -0.09 | -0.11
CCOC(=O)Oc1ccc2c(=O)c(Oc3ccc(OC)cc3)c(C(F)(F)F)oc2c1 | -5.58 | -0.96
Cc1ccc(CNCCc2csc3c2CCCC3)cc1 | 0.04 | .
O=C(Cn1c(=O)oc2cc(S(=O)(=O)NC3CCCCC3)ccc21)NC1CCCC1 | 0.89 | -1.13
CCc1nn2cc(-c3ccc(C)cc3C)nc2s1 | 1.89 | -0.64
CCCN1CCN(C(=O)C(CC)n2nc(C)n3c(cc4occc43)c2=O)CC1 (configuration not stated) | 1.88 | -1
CC1CN(C(=O)CCC(=O)NCCN2CCOCC2)c2ccccc2O1 (configuration not stated) | -0.54 | -0.08
CCCC(=O)N(c1ccccc1)C1C=CS(=O)(=O)C1 (configuration not stated) | -0.23 | -1.05
Fc1ccc(Nc2nc(-c3ccncc3)cs2)cc1 | 0.84 | 0.08
O=C1CCCc2cc(S(=O)(=O)N3CCN(c4ccc(F)cc4)CC3)ccc2N1 | -0.48 | .
COc1ccc(OC)c(CNc2nc(N3CCCC3)nc3c2cnn3C)c1 | 0.1 | .
N#Cc1c(F)cccc1NC(=O)c1ccc(Cl)cc1 | . | -2.2
O=C(NCc1ccccc1)c1c(/N=C/c2c(O)ccc3ccccc23)sc2c1CCCC2 | 0.41 | .
CC(=O)c1cc2c(s1)-c1cc(F)ccc1OC2 | . | -0.79
COc1ccc(Br)cc1CNCCCSc1nnnn1C | -0.33 | -0.95
